ALR H2O2 inh = inhibitors of human ALR sulfhydryl oxidase, primary screen, biochemical, H2O2 detection, HRP-luminol luminescence, single point | 290,000 tested, 3.8% active | inhibition, % (no concentration beside the values) | purified ALR, DTT oxidation;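 active means mean and each replicate at 75% or more; inconclusive means only one of the two met; inactive means neither met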;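 further: stock transfer was 7.5 nL into about 7.5 µL; 0% = neutral wells and 100% = wells with inactivated enzyme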
LANA-H2B inh = blockers of LANA interaction with H2A/H2B – biochemical, FP readout, HTS, primary screen; cell-free LANA-H2A/H2B peptide, fluorescence polarization; inhibition, % (no concentration beside the values); 320,000 tested, 0.6% active; AID 2629, 2010; in the data active means inhibition mostly above about 10%, no sharp cut-off; inactive means mostly below about 6.7%;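 further: stock transfer was 7.5 nL into about 10 µL; 0% = median of vehicle wells and 100% = median of positive control wells; one replicate is shown; the record names a cut of 25% in any replicate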
Target sequence (Q9QR71 whole entry, looked up): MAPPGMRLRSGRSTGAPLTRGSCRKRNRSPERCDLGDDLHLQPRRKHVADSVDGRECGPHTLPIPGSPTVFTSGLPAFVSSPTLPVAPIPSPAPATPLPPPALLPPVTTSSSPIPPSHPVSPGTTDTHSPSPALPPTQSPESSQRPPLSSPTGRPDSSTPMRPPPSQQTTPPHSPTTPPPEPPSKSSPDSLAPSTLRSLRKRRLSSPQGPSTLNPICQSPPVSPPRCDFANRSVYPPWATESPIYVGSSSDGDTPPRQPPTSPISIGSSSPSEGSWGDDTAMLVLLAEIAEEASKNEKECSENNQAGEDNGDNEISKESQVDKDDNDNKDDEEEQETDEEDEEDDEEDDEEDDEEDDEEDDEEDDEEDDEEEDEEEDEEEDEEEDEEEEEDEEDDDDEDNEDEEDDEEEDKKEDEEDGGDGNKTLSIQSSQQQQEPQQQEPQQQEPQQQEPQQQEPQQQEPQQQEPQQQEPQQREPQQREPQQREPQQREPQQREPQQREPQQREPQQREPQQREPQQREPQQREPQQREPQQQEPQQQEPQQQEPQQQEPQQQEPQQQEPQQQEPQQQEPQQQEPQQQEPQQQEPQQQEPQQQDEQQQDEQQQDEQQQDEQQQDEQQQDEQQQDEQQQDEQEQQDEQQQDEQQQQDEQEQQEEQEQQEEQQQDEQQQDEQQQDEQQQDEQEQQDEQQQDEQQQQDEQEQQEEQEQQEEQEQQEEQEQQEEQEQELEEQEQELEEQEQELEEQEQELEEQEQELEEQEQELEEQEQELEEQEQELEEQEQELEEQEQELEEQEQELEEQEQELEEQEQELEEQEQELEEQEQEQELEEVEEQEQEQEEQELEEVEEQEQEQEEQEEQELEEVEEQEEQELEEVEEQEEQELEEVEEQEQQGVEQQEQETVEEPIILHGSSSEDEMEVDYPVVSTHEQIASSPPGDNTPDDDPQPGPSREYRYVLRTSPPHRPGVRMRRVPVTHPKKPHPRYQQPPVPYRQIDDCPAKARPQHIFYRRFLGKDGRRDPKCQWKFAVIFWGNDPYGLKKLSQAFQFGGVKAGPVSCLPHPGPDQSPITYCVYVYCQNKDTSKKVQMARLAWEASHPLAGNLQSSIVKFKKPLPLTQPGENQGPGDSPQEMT
Vif A3G = inhibitors of Vif binding to APOBEC3G peptide, primary screen, biochemical, TR-FRET, GST-Vif 1-94, biotin-A3G peptide, dose response retest (AID 1117319) | Virion infectivity factor (Human immunodeficiency virus type 1 group M subtype B (isolate … | TR-FRET GST-Vif / biotin-A3G peptide binding; higher % means a stronger effect; test concentration not given here; strong numbers were not always called active | inhibition, %, or IC50 in µM where a hit was titrated | 260,000 tested, 0.57% active;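 active means above the screen mean plus three standard deviations and confirmed in dose response; inconclusive means results disagree or hit not tested in dose response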;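 further: Vif residues 1-94 fused to GST binding biotinylated APOBEC3G peptide 110-148; 0% = full assay without inhibitor and 100% = GST in place of GST-Vif; retest series ran down from 100 µM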
RanGTP-Imp inh = inhibitors of RanGTP-importin-beta interaction, primary screen, biochemical, FRET, CFP-Ran, YFP-importin-beta, homogeneous | inhibition, % (concentration not given with the values) | cell-free CFP-Ran/YFP-importin-beta FRET ratio | AID 2216, 2009 | Ran GTPase (GTP-bound) - importin-beta complex | 300,000 tested, 1.1% active;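 active means most replicates above 15%; inconclusive means exactly half above 15%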;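 further: 0% = DMSO wells and 100% = Ran loaded with GDP instead of GTP; wells of about 40 µL received 100 nL stock; the first replicate is given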
HNF4A DNA FP = change in binding of human HNF4A to DNA, primary screen, biochemical, fluorescence polarization, FITC-DNA; 1 h; activity change, % at 10 µM; 360,000 tested, 0.3% active; in the data active means activity change above about 30%, passing the limit was not always enough;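 further: controls were the assay level and a saturating level of protein; the project sought stronger binding though the title names inhibitors; some compounds called inactive have numbers as strong as hits; positive values seem to mean higher polarization but the record does not say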
B2AR ag = beta2AR agonists driving receptor internalization, primary screen, cell-based, FAP fluorogen, flow cytometry. Beta-2 adrenergic receptor (Homo sapiens), P07550. Am2.2-beta2AR cells; reference of the scale not given here. response, % (test concentration not listed). 340,000 tested, 0.43% active. AID 504454, 2011;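 active means response above a set limit, near 3 SD of response in nonfluorescent compounds, cut at about 42% in these data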;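 further: stock transfer was 100 nL into about 11 µL; a reference agonist was the positive control; negative values mostly stem from fluorescent compounds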
Calb FLC = C. albicans growth inhibition with fluconazole, primary screen, CaCi-2 strain, Alamar Blue fluorescence; C. albicans CaCi-2 (fluconazole-resistant clinical isolate) + fluconazole, 48 h; growth inhibition, % (concentration not given with the values); 300,000 tested, 0.57% active;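 active means most replicates above 75%; inconclusive means exactly half above 75%; inactive means most below 75%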;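 further: all wells also contain fluconazole at 8 µg/ml as a sub-toxic cotreatment; 0% = median of DMSO wells and 100% = median of geldanamycin control wells; wells of about 8 µL received 7.5 nL stock; the first replicate is given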
An asterisk follows results filed as active; ? = inconclusive; . = no result given.

compound	ALR H2O2 inh	Vif A3G	B2AR ag	HNF4A DNA FP	LANA-H2B inh	RanGTP-Imp inh	Calb FLC
NC(N)=NS(=O)(=O)c1ccc(NC(=S)NC(=O)/C=C/c2ccco2)cc1	.	?	-10	2.6	.	6.2	-7
Cc1nc(N/N=C/c2ccccc2)nc(N(C)c2ccccc2)c1[N+](=O)[O-]	-1	-7%	-13	0.3	7.2	5.8	-1
COc1ccc(Br)cc1CN(C)CC(=O)NCc1ccc(F)cc1	-6	-2%	-4	-2.0	0.3	?	16
Cc1cc(C)cc(NC(=O)COC(=O)CCn2c(C)csc2=O)c1	-4	-10%	0	-0.8	-3.4	.	.
CCN(CC(=O)Nc1ccc(C)c(F)c1)CC(=O)NC(C)C	.	.	2	2.0	-1.5	-1.4	1
O=S1(=O)N[C@@H](CC2=CCCCC2)C2CCCCC2O1 (some centres not stated)	-4	.	-3	-0.8	2.6	-0.1	-10
O=C(O)CCNc1cc(N2CCN(C(=O)c3ccco3)CC2)c2noc3c2c1C(=O)c1ccccc1-3	57	.	-3	-11	2.0	-39	-2
Cc1nn(CC(=O)NCCc2cccs2)c(=O)c2cc3ccccc3n12	2	.	-11	-1.5	-2.9	-4.4	2
CCn1c(=O)c(C(=O)CN2CC(C)OC(C)C2)c(N)n(Cc2ccccc2)c1=O (configuration not stated)	-20	0%	-4	-0.1	-1.0	?	9
COc1ccc(C(C#N)N2N=C(c3ccccc3)CC2c2ccccc2)cc1OC (configuration not stated)	-33	.	-5	-2.2	0.5	?	1
CN(C(=O)CCN1C(=O)S/C(=C\c2ccccc2)C1=O)C1CCS(=O)(=O)C1 (configuration not stated)	19	.	-17	0.5	18*	-0.5	5
O=C(CCCC1=NS(=O)(=O)c2ccccc2N1)OCc1ccc(Cl)cc1	0	.	2	2.1	2.9	2.8	-8

Arranged by molar mass (lowest first): part of the list above.
compound	ALR H2O2 inh	Vif A3G	B2AR ag	HNF4A DNA FP	LANA-H2B inh	RanGTP-Imp inh	Calb FLC
Cc1nc(N/N=C/c2ccccc2)nc(N(C)c2ccccc2)c1[N+](=O)[O-]	-1	-7%	-13	0.3	7.2	5.8	-1
Cc1nn(CC(=O)NCCc2cccs2)c(=O)c2cc3ccccc3n12	2	.	-11	-1.5	-2.9	-4.4	2
NC(N)=NS(=O)(=O)c1ccc(NC(=S)NC(=O)/C=C/c2ccco2)cc1	.	?	-10	2.6	.	6.2	-7
COc1ccc(Br)cc1CN(C)CC(=O)NCc1ccc(F)cc1	-6	-2%	-4	-2.0	0.3	?	16
COc1ccc(C(C#N)N2N=C(c3ccccc3)CC2c2ccccc2)cc1OC (configuration not stated)	-33	.	-5	-2.2	0.5	?	1
CCn1c(=O)c(C(=O)CN2CC(C)OC(C)C2)c(N)n(Cc2ccccc2)c1=O (configuration not stated)	-20	0%	-4	-0.1	-1.0	?	9
O=C(O)CCNc1cc(N2CCN(C(=O)c3ccco3)CC2)c2noc3c2c1C(=O)c1ccccc1-3	57	.	-3	-11	2.0	-39	-2

Back to the main list, repeating the two entries before the break.
compound	ALR H2O2 inh	Vif A3G	B2AR ag	HNF4A DNA FP	LANA-H2B inh	RanGTP-Imp inh	Calb FLC
CN(C(=O)CCN1C(=O)S/C(=C\c2ccccc2)C1=O)C1CCS(=O)(=O)C1 (configuration not stated)	19	.	-17	0.5	18*	-0.5	5
O=C(CCCC1=NS(=O)(=O)c2ccccc2N1)OCc1ccc(Cl)cc1	0	.	2	2.1	2.9	2.8	-8
CC(=O)Nc1cccc(NC(=O)CCCC(=O)O)c1	-6	-2%	-7	-1.7	1.2	3.9	-4
CCC(=O)NC(=S)Nc1ccc(Cl)cn1	1	-5%	3	-0.4	1.1	2.8	18
CCc1ccccc1NC(=O)CSc1ncn[nH]1	-1	-2%	-1	2.5	2.9	-3.4	-1
Cn1c(SCC(=O)Nc2ccc(C(N)=O)cc2)nnc1-c1cccs1	-11	.	-8	-1.2	16*	1.2	-3
CCOc1ccc(NC(=O)CSC(N)=O)cc1	99*	4%	2	3.0	5.3	-3.4	4
CCOc1ccc(OCCC(=O)OCC(=O)NCc2ccccc2)cc1	3	.	3	-0.7	-13	5.9	1
COc1ccc2[nH]c3ccccc3c2c1	52	1%	6	-1.5	1.9	-0.8	-8
CCOC(=O)/C(C#N)=C/Nc1ccsc1C(C)=O	-2	27%	3	0.0	0.6	0.8	-2
CCOc1ccc(CCNC(=O)COC(=O)c2ccc(OC)c(OC)c2OC)cc1OCC	0	.	5	1.2	1.2	2.8	-9
CCC1(c2ccccc2)NC(=O)N(CC(=O)N(C)CC(=O)Nc2c(C)cccc2C)C1=O (configuration not stated)	-4	0%	5	15	15	-7.6	-3
CC1(C)C2CCC1(C)C(NC1=NCCC1)C2 (configuration not stated)	-2	67%	2	-1.8	2.2	-0.2	.
Cc1coc2c1c(C)cc1oc(=O)c(CC(=O)N[C@H](C(=O)O)C(C)C)c(C)c12	.	-9%	-4	-0.7	1.3	0.8	4

Compound profiles, from the list above. Screens in order: ALR H2O2 inh | Vif A3G | B2AR ag | HNF4A DNA FP | LANA-H2B inh | RanGTP-Imp inh | Calb FLC
`CCn1c(=O)c(C(=O)CN2CC(C)OC(C)C2)c(N)n(Cc2ccccc2)c1=O` (configuration not stated) in the list: -20 | 0% | -4 | -0.1 | -1.0 | ? | 9
`CCOc1ccc(OCCC(=O)OCC(=O)NCc2ccccc2)cc1` in the list: 3 | . | 3 | -0.7 | -13 | 5.9 | 1
`COc1ccc(Br)cc1CN(C)CC(=O)NCc1ccc(F)cc1` in the list: -6 | -2% | -4 | -2.0 | 0.3 | ? | 16
`CCN(CC(=O)Nc1ccc(C)c(F)c1)CC(=O)NC(C)C` in the list: . | . | 2 | 2.0 | -1.5 | -1.4 | 1

(list continues)
compound	ALR H2O2 inh	Vif A3G	B2AR ag	HNF4A DNA FP	LANA-H2B inh	RanGTP-Imp inh	Calb FLC
CCN(CC(=O)Nc1ccc2c(c1)OCCO2)C(=O)/C=C/c1cccc(OC)c1OC	5	4%	12	2.5	-1.9	6.7	9
CC[C@]12c3[nH]c4cc(CCC(=O)N(C)C)ccc4c3CCN1C(=O)[C@@H](CC(=O)NC(C)(C)C)C[C@@H]2C(=O)N1CCN(C(=O)C2CC2)CC1	.	-4%	1	-5.9	.	.	.
CC(=O)n1cc([C@H]2C=C(C(=O)N3CCN(Cc4ccc5c(c4)OCO5)CC3)O[C@@H](OCc3ccc(CO)cc3)C2)c2ccccc21	-2	9%	12	0.4	3.4	-0.1	26
Fc1cccc(Cc2noc(CN3CCOCC3)n2)c1	.	2%	-8	-3.0	-3.6	2.1	-10
Cc1ccc(CNC(=O)c2nnn(CC(=O)Nc3cccc(C)c3C)c2N)cc1	2	.	1	-3.1	3.2	0.0	-18
CCC(=O)OCC(=O)N=c1sccn1Cc1ccc(C)cc1	8	.	2	-1.8	0.2	2.0	-12
CC(C)CC(=O)O/N=C1\C(=O)N(c2ccccc2)c2ccccc21	-1	30%	5	0.3	3.9	-1.2	-17
COc1ccc(N(CC(=O)N2CCN(c3cccc(C)c3C)CC2)S(=O)(=O)c2c(C)noc2C)cc1	-8	-2%	9	-0.1	5.5	-1.5	13
COc1cnc(-c2ccccc2)c(-c2ccccc2)n1	-8	.	-7	4.6	4.2	-0.3	1
CN(C)CCOCCOc1ccccc1-c1ccccc1	-9	1%	2	-0.8	1.3	0.6	-18
CC1CC(C)(C)NC(=S)N1CCCC(=O)Nc1ccc(F)cc1 (configuration not stated)	1	-5%	3	-1.3	-0.5	0.1	-6

From PubChem BioAssay
